# HPGD block – HPGD (human) dehydrogenase inhibition; 4.3% of 150,000 active; P15428; purified HPGD, NADH fluorescence kinetic, PGE2 substrate; Potency, µM, for the others: at the top dose activity change, negative = inhibition, most hits filed as inhibitors; active = well fitted inhibition curve with a large enough effect (not every such curve was filed as active); inconclusive = small, poorly fitted or top-dose-only effect, or another doubt; inactive = no such curve, though single readings can be large or run the other way;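 note: top concentration of the series not given in the record; plate controls included wells without enzyme; inactives centre near -10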
# Target sequence (P15428 whole entry, looked up): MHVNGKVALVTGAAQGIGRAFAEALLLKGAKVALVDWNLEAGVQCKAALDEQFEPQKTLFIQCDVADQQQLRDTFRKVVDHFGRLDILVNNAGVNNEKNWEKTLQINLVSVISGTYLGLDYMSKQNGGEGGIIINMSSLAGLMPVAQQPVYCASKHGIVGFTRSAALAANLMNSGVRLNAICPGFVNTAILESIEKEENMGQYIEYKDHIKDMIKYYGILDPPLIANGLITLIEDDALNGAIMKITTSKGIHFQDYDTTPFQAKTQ
#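 NADH formation kinetics: reaction with 30 uM PGE2 and 1 mM NAD+ (final), 20 nM enzyme, Tris-HCl pH 8 with Tween 20, after 15 min compound preincubation at room temperature. Fluorescence change, last versus first of five reads.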
# The depositor's hits bear a star; ? = inconclusive; & = joins results of further samples. % is set by controls: 0 for no effect and ±100 for the full control effect; potency is the fitted concentration of half-maximal effect. Not all compounds are listed, so the mix of outcomes need not match the whole.
HPGD block | structure
-9% | CC(C)NC(=O)CC1OC(=O)c2ccccc21 (stereo not drawn)
-16% | COC(=O)CSc1nc2nc(C)cc(C)n2n1
? | C=CCNc1oc(/C=C/c2ccccc2)nc1C#N
-9% | CCOC(CNC(=O)CCc1c(C)nc2ncnn2c1C)OCC
-14% | O=C(O)c1cccc(OCc2ccccc2Cl)c1
-15% | Cc1ccc(CNC(=O)CSc2ccc(-c3cccs3)nn2)cc1
? | Cc1ccccc1-n1c(SCC(=O)c2cc(C)n(C)c2C)nnc1-c1ccncc1
-14% | N#Cc1ccc(NC(=O)COC(=O)CSc2nnc(-c3ccc(Cl)cc3)o2)cc1
-1% | O=C(Nc1ncc(Cc2ccccc2)s1)C1CCCO1 (stereo not drawn)
0% | COc1ccccc1-n1c(SCC(=O)NC2CCS(=O)(=O)C2)nc2cc([N+](=O)[O-])ccc21 (stereo not drawn)
-13% | COc1cc(OC)c2c(-c3cccc(-c4ccc(O)cc4)c3)cc(=O)oc2c1
? | O=C(COc1cccc2cccnc12)N1CCc2ccccc2C1
-14% | c1ccc(COc2ccc(OCCCn3cncn3)cc2)cc1
-12% | Cc1ccc(-c2csc(NNC(=O)c3ccccc3)n2)cc1
-7% | CCOC(=O)Cn1c(=O)oc2cc(S(=O)(=O)NCCc3ccc(C)cc3)ccc21
-4% | COC(=O)[C@@]1(Cc2ccc(F)cc2)[C@H]2c3cc(C(=O)N4CCCC4)n(Cc4ccc(S(C)(=O)=O)cc4)c3C[C@H]2CN1C(=O)c1ccccc1
-13% | CCOc1ccccc1NC(=O)C(OC(=O)c1ccccc1)c1ccccc1 (stereo not drawn)
-16% | CCc1nnc(NC(=O)c2ccc(S(=O)(=O)N(CC)CC)cc2)s1
-8% | CN1C(=O)/C(=C\c2cc(N=Nc3ccccc3)ccc2O)SC1=S
-24% | CN1C(=O)C(c2nnc(Nc3cccc4ccccc34)s2)C2CC1(C)Oc1ccccc12 (stereo not drawn)

# Structural class: the entries above with a cyano group.
HPGD block | structure
? | C=CCNc1oc(/C=C/c2ccccc2)nc1C#N
-14% | N#Cc1ccc(NC(=O)COC(=O)CSc2nnc(-c3ccc(Cl)cc3)o2)cc1

# (next part)
HPGD block | structure
-12% | Cc1ccc(/C=N/NC(=O)c2cc(C)oc2C)o1
? | O=C(NCCc1ccccc1)C1CCC(Cn2c(=O)c3ccccc3n(Cc3cccnc3)c2=O)CC1 (stereo not drawn)
28µM* | Cc1noc(NS(=O)(=O)c2ccc(NC(=O)CSc3nc4ccccc4s3)cc2)c1C
-8% | O=c1[nH]c2c(s1)C=Nc1ccccc1N2
-9% | CCCC1NC(=O)NC(C)=C1C(=O)OCC (stereo not drawn)
-6% | CCC(C)(C)n1nnnc1C(c1cc2ccc(C)cc2[nH]c1=O)N(Cc1cccnc1)Cc1ccco1 (stereo not drawn)
-6% | O=C(NCCOc1cccc(Oc2ccccc2)c1)c1cc(-n2cnnc2)ccc1Cl
-9% | CNCc1ccccc1
-24% | Cc1ccccc1OCc1nc2c3c(ncn2n1)-c1ccccc1CC31CCCC1
? | COc1ccc(/C=C(/CC(=O)NCc2ccc(Cl)cc2)c2nc3ccccc3s2)cc1
-14% | COc1cccc(CNC(=O)c2ccc(NC(=O)C3CCCO3)cc2)c1 (stereo not drawn)
? | N#Cc1c(C#N)c(-c2ccccc2)n(-c2ccccc2)c1N
? | CCCc1cc(=O)oc2cc(OCC(=O)OC)cc(OCC(=O)OC)c12
-3% | CCCN1CCCc2ccccc21
-13% | COc1cc(OC)cc(C(=O)NC(=S)Nc2ccc3c4c(cccc24)CC3)c1
-20% | N#Cc1ccc(CSc2nnc(Cc3cccs3)n2Cc2ccco2)cc1
? | COCCNc1nc(C)nc2c1nc(-c1ccccc1)n2CC1CCN(C)CC1
-5% | Cc1ccc(NC(=O)CSc2nn(-c3ccccc3)c(=S)s2)cc1S(=O)(=O)N(C)C
2% | C/C=C/c1ccc(OCCCCN2C(=O)NC(C)(C)C2=O)c(OC)c1
-23% | CCOC(=O)C1CSC(Cc2ccc(OCc3ccc([N+](=O)[O-])cc3)cc2)N1 (stereo not drawn)
-23% | COc1ccc2occ(C(C)=O)c2c1
-18% | CCOC(=O)c1sc(C)c2c(=O)n(Cc3ccc(Cl)cc3)c(C)nc12
-10% | O=C1CC(SCc2nc3ccccc3[nH]2)C(=O)N1c1ccc(Cl)cc1 (stereo not drawn)
-3% | COc1ccc(C2=NOC(C(=O)Nc3cc(C)nn3-c3ccccc3)C2)cc1OC (stereo not drawn)
-14% | Cc1ccc(CN2CCN(C(=O)C3CCC3)CC2)cc1
-3% | Cc1sc2ncn(CC(=O)OC(C)C)c(=O)c2c1C
-11% | O=C(O)CCNc1ccc2c(c1)OCCO2
3.2µM* | S=c1[nH]nc(-c2ccccc2)n1/N=C/c1ccc(-c2ccccc2Cl)o1
32µM* | COC(=O)NC(NC(=S)Nc1ccc([N+](=O)[O-])cc1)C(Cl)(Cl)Cl (stereo not drawn)
-14% | Cc1ccc(S(=O)(=O)N(CC(=O)NCCSc2ccccn2)c2cc(C)cc(C)c2)cc1
-19% | CCn1cc(C(=O)NCCCOC)c2cc(OC)c(OC)cc2c1=O
-9% | COCCNC(=O)C(OC(=O)CC1Sc2ccccc2NC1=O)c1ccncc1 (stereo not drawn)
-12% | COCC(C)n1c(C)cc(C(=O)COC(=O)c2nc3nc(C)cc(C)n3n2)c1C (stereo not drawn)
-16% | CCOc1ccc(S(=O)(=O)N2c3ccccc3CC2C)cc1 (stereo not drawn)
1% | CCc1nccn1S(=O)(=O)c1cc(OC)c(Cl)cc1OC
1%&-7% | Nc1nc(Cl)nc2c1ncn2[C@H]1C[C@H](O)[C@@H](CO)O1
-14% | Cc1ccc(C(=O)COc2ccccc2-c2ccccc2)cc1C
-28% | CC(=O)N(CCO)Cc1cc2cc(C)cc(C)c2[nH]c1=O
-2% | O=C(NCCc1ccc(Cl)cc1)C1CCN(S(=O)(=O)c2ccc(-n3cnnn3)cc2)CC1
? | O=C1OCCN1C(=O)[C@H]1[C@H](c2ccc(Cl)cc2)C(c2ccc(F)cc2)=NN1c1ccccc1

# Reprinted from the entries so far, 4 compounds:
HPGD block | structure
-11% | O=C(O)CCNc1ccc2c(c1)OCCO2
3.2µM* | S=c1[nH]nc(-c2ccccc2)n1/N=C/c1ccc(-c2ccccc2Cl)o1
32µM* | COC(=O)NC(NC(=S)Nc1ccc([N+](=O)[O-])cc1)C(Cl)(Cl)Cl (stereo not drawn)
-14% | Cc1ccc(S(=O)(=O)N(CC(=O)NCCSc2ccccn2)c2cc(C)cc(C)c2)cc1

# Part of the list above in order of length of the SMILES, low to high:
HPGD block | structure
-19% | CCn1cc(C(=O)NCCCOC)c2cc(OC)c(OC)cc2c1=O
-13% | CCOc1ccccc1NC(=O)C(OC(=O)c1ccccc1)c1ccccc1 (stereo not drawn)
2% | C/C=C/c1ccc(OCCCCN2C(=O)NC(C)(C)C2=O)c(OC)c1
3.2µM* | S=c1[nH]nc(-c2ccccc2)n1/N=C/c1ccc(-c2ccccc2Cl)o1
-14% | Cc1ccc(S(=O)(=O)N(CC(=O)NCCSc2ccccn2)c2cc(C)cc(C)c2)cc1
-4% | COC(=O)[C@@]1(Cc2ccc(F)cc2)[C@H]2c3cc(C(=O)N4CCCC4)n(Cc4ccc(S(C)(=O)=O)cc4)c3C[C@H]2CN1C(=O)c1ccccc1

# Remaining list, next part:
HPGD block | structure
-1% | CN(CCNC(=O)C1CC(=O)N(c2ccc(F)c(Cl)c2)C1)Cc1ccccc1 (stereo not drawn)
-17% | CC(C)c1ccc(NC(=O)C(c2ccccc2)N2CCN(C(=O)c3ccco3)CC2)cc1 (stereo not drawn)
-3% | CCOC(=O)C1=C(C)N=c2s/c(=C\c3ccc(OC(C)=O)c(OCC)c3)c(=O)n2C1/C=C/c1ccccc1 (stereo not drawn)
-11% | c1ccc(Oc2cc(-n3cccn3)ncn2)cc1
-22% | COC(=O)C1=C(C)OC(N)=C(C#N)C1c1ccccc1 (stereo not drawn)
? | CCCn1c(N)c(C(=O)COC(=O)c2c(C)noc2C)c(=O)n(C)c1=O
-20% | O=C(CSc1nc2ccccc2c(=O)n1Cc1ccco1)N1CCCCCC1
? | CCN(CC)CCCn1c(-c2ccccc2)nc2c(N(CCOC)CCOC)nc(C)nc21
-6% | Cc1cc(NC(=O)COc2cccc(Oc3ccccc3)c2)no1
-8% | Cc1cc(Br)ccc1NC(=O)CNC(=O)CN1C(=O)NC2(CCCCCC2)C1=O
16µM* | CCOC(=O)N1CCN(c2c(NCc3ccccc3OC)c(=O)c2=O)CC1
-10% | CC(NC(=O)NC1CCCCC1)c1ccccc1 (stereo not drawn)
-13% | COc1ccc(Br)c(C(=O)Nc2cccc(Cl)c2Cl)c1
? | C/C(=N\NC(=S)Nc1ccc(C)c(C)c1)c1ccc(N2CCOCC2)cc1
-19% | CC(C)CC(=O)/C=C/n1c(=S)oc2ccccc21
? | N=c1c(C(=O)NCc2ccc(F)cc2)cc2c(=O)n3ccccc3nc2n1CC1CCCO1 (stereo not drawn)
0% | O=C1NCCCC1C(=O)N1CCN(C(=O)c2ccco2)CC1 (stereo not drawn)
5% | O=C1N(c2cccc(Cl)c2)C(c2ccc(Cl)cc2)N2CCCN12 (stereo not drawn)
-28% | CCN(CC)S(=O)(=O)c1cc([N+](=O)[O-])ccc1NNC(=O)Nc1ccccc1
? | CCOC(=O)c1c(N)sc(C(=O)N2CCCC2)c1C
14µM* | S=c1[nH]nc(-c2ccco2)n1/N=C/C=C/c1ccco1
-12% | Cc1nn(C(C)C(=O)N2CCCCC2)c(=O)c2c1sc1ccccc12 (stereo not drawn)
-3% | COC(=O)c1ccccc1NC(=O)c1cc(-c2ccc(C)cc2)on1
-7% | COc1ccc(C)cc1S(=O)(=O)N1CCN(S(=O)(=O)c2cc(C)ccc2OC)CC1
-5% | CCOCCCNC(=O)C(c1ccc(C)cc1)N1CCOCC1 (stereo not drawn)
-19% | CCOP(=O)(CC(C(C)=O)C(O)c1ccccc1)OCC (stereo not drawn)
? | CCC1CCCCN1C(=O)CSc1nnc(-c2ccc3c(c2)OCCO3)o1 (stereo not drawn)
-10% | CCn1c(SCC(=O)N2CCc3ccccc3C2)nc2sc(C)c(C)c2c1=O
-31% | O=C(CN1CCc2ccccc2C1)NCc1ccco1
-16% | CCC(=O)Nc1ccc(C(=O)N/N=C/c2cc(Br)c(OC)cc2OC)cc1
-5% | COc1cccc(-c2csc(N3CCN(C(=O)C4CCCCC4)CC3)n2)c1
2% | O=C(COC(=O)c1ccccn1)NCCCc1ccccc1
0% | Oc1ccccc1CNCc1ccccc1O
-19% | O=C1c2ccccc2CCCC12N=NCC2c1cccc2ccccc12 (stereo not drawn)
11µM* | CCc1ccc(/C=C\C(=O)N2CCc3ccccc3C2)cc1
-3% | O=C(Nc1ncc(Br)s1)C1CCCN1S(=O)(=O)c1cccc2cccnc12 (stereo not drawn)
? | CNC(=O)c1ccc(-c2ccc(OC)cc2)s1
-8% | O=C(CCn1c(=O)[nH]c2ccsc2c1=O)N1CCN(c2cccc(Cl)c2)CC1
-9% | CC1CCCCC1NC(=O)C1CCN(S(=O)(=O)N2CCCCCC2)CC1 (stereo not drawn)
-1% | CN1CCN(C(=O)C2CCN(S(=O)(=O)c3ccc4c(c3)oc(=O)n4C)CC2)CC1

# Structures above that contain a COOH group:
HPGD block | structure
-14% | O=C(O)c1cccc(OCc2ccccc2Cl)c1
-11% | O=C(O)CCNc1ccc2c(c1)OCCO2

# More records
HPGD block | structure
-18% | O=C(Oc1ccc(N2C(=O)CCC2=O)cc1)c1ccccc1Cl
1% | Cc1cccc(OCc2nnc(SCC(=O)NCCc3ccccc3)o2)c1
-8% | c1ccc(CCCNc2ncnc3nc[nH]c23)cc1
? | COc1cc(/C=N/NC(=O)Nc2cccc3nsnc23)cc(OC)c1OC
-9% | Cc1onc(-c2ccncc2)c1C(=O)O
-9% | CC1CC(C)CN(S(=O)(=O)c2ccc(C(=O)Nc3nnc(-c4cccs4)o3)cc2)C1 (stereo not drawn)
-7% | CCn1c(CC(=O)Nc2ccc(C)c(Cl)c2)nnc1SCC(=O)Nc1nc(C)cs1
-8% | c1ccc(OCCCCn2cnc3ccccc32)cc1
-19% | Cc1ccc(OCC(=O)Nc2ccc(F)cc2)cc1
-17% | N#CC1(C#N)CC(C=O)=C(N)C1(C#N)CC(=O)c1ccc(F)cc1 (stereo not drawn)
-9% | c1ccc(C2=NC(c3ccccc3)N=C(c3ccccc3)N2)cc1
1% | CCOC(=O)c1c(/N=C/N(C)C)sc2c1CCC2
-8% | O=C(CO/N=C/c1ccccc1O)N1CCc2ccccc21
-4% | CCOc1ccccc1Nc1nc(N)nc(CSc2nncn2C)n1
-11% | COc1ccc(/C(N)=N/OC(=O)Oc2ccccc2)cc1
-11% | COCCCNC(=O)/C(=C\c1cccn1C)NC(=O)c1cccs1
? | Nc1c(C(=O)O)nnn1Cc1ccccc1
-23% | O=C(c1ccc(Cl)c(F)c1F)N1CCOCC1
-13% | CCC1SC2=NC(C)=C(C(=O)OCCOC)C(c3ccc(C(=O)OC)cc3)N2C1=O (stereo not drawn)
-4% | Cc1ccccc1NC(=O)C(=O)NCc1ccccn1
2% | Nn1c(SCC(=O)Nc2ccc3c(c2)OCO3)nnc1-c1ccccc1
? | Nc1c(C(=O)NCCN2CCOCC2)c2nc3ccccc3nc2n1-c1cccc(F)c1
-9% | C[N+]1(NCC[N@@+]2(C)CCc3ccccc3C2)CCCCC1
-25% | O=C(COC(=O)c1ccccc1Nc1cccc(C(F)(F)F)c1)NCc1ccco1
-8% | O=C(CC(c1ccccc1)c1cc(Cl)ccc1O)N1CCOCC1 (stereo not drawn)
-23% | CCCN1C(=O)C(O)(CC(=O)c2cccc(OC)c2)c2ccccc21 (stereo not drawn)
-4% | COc1ccc(N2CCN(C(=O)CCn3nnc4ccccc43)CC2)cc1
-2% | COc1ccccc1C(=O)Nc1ccon1
-8% | CC(=O)NC(CCS(C)(=O)=O)C(=O)Nc1ccccc1C (stereo not drawn)
-12% | CC1(C)CC2CC(C)(CN2C(=O)CN2C(=O)c3ccccc3C2=O)C1 (stereo not drawn)

# High-throughput results: PubChem, National Center for Advancing Translational Sciences (NCATS)
